HNF4A DNA FP – change in binding of human HNF4 alpha to DNA. P41235. HNF4a-FITC DNA binding, fluorescence polarization, 1 h. activity change, % at 10 µM. actives 0.3% (n = 360,000); in the data active = activity change above about 30%, passing the limit was not always enough;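 note: controls were the assay level and a saturating level of protein; the project sought stronger binding though the title names inhibitors; some compounds called inactive have numbers as strong as hits; positive values seem to mean higher polarization but the record does not say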
Target sequence (P41235 whole entry, looked up): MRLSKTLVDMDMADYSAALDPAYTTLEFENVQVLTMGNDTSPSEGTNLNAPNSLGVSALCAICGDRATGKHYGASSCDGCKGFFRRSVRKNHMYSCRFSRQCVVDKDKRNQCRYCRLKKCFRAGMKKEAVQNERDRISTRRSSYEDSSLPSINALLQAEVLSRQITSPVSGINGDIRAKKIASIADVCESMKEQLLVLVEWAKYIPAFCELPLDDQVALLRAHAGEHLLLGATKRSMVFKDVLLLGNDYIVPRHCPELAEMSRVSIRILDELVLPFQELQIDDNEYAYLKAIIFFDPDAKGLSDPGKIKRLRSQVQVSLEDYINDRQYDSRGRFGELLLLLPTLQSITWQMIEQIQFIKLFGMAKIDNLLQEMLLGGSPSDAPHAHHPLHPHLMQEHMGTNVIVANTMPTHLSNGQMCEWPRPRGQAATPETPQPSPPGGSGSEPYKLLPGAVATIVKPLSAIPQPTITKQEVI
Vif A3G – HIV-1 Vif–A3G interaction blockers – biochemical, TR-FRET, GST-Vif 1-94, biotin-A3G peptide, dose response retest, primary screen (AID 1117319); actives 0.57% (n = 260,000); inhibition, %, or IC50 in µM where a hit was titrated; TR-FRET GST-Vif / biotin-A3G peptide binding; higher % means a stronger effect; test concentration not given here; strong numbers were not always called active;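 active = above the screen mean plus three standard deviations and confirmed in dose response; inconclusive = results disagree or hit not tested in dose response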;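 note: Vif residues 1-94 fused to GST binding biotinylated APOBEC3G peptide 110-148; 0% = full assay without inhibitor and 100% = GST in place of GST-Vif; retest series ran down from 100 µM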
MLL AF4-AF9 inh – blocks AF4 peptide binding to human AF9. AID 651704. P42568. inhibition, % at 10 µM. actives 0.47% (n = 350,000). AlphaScreen, biotin-AF4 peptide binding to FLAG-AF9;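 active = every replicate reaching a set inhibition limit, whatever the replicate mean, cut at about 25% in these data; inconclusive = mean inhibition reaches that limit but some replicates miss it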;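 note: 0% = plate neutral control median and 100% = total signal loss; the record names both 10 and 1 µM as test concentration; the first replicate is given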
Target sequence (P42568 whole entry, looked up): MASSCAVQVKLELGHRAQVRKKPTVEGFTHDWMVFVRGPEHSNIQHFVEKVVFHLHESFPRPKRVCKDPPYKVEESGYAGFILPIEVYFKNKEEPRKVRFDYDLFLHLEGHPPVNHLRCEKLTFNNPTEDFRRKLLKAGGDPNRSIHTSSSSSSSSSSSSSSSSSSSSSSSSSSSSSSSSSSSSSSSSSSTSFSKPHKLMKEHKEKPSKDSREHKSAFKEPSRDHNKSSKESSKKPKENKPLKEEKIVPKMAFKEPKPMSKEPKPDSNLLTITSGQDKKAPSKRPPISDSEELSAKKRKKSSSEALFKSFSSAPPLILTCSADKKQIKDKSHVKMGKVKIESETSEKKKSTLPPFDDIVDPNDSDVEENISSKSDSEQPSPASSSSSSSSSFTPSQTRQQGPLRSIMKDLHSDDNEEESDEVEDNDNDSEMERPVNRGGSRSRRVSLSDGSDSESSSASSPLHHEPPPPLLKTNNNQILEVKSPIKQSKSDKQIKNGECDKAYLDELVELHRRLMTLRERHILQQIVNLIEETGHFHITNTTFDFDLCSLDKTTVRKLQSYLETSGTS
Ecoli growth – E. coli growth inhibition; Escherichia coli growth, OD600, 23 h; active compounds read low; OD600 absorbance (concentration not given with the values); actives 0.21% (n = 330,000);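 active = OD600 absorbance below the run mean of sample wells minus 3.6 SD, in any replicate, cut at about 0.56 in these data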;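 note: stock transfer was 300 nL into about 60 µL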
UCH37 DUB inh – inhibitors of human deubiquitinating enzyme UCH37; Q9Y5K5; purified proteasome/UCH37, Ub-AMC cleavage fluorescence; inhibition, % (test concentration not listed); actives 0.33% (n = 330,000); AID 588478;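 active = mean of two replicates above 20%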;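 note: 0% = compound-free wells with enzyme and 100% = wells lacking proteasome; stock transfer was 100 nL into about 20 µL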
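Test system – human UCH37 enzyme supplied as purified proteasome complex · Incubation – 30 min preincubation with enzyme, 25 min cleavage at room temperature · Detection – AMC fluorescence from Ub-AMC cleavage, excitation 355 nm, emission 460 nm · Benchmarks – no-proteasome wells (full inhibition) and compound-free wells (no inhibition)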
FGF22 binding – binders of recombinant human FGF22 by thermal shift; SYPRO orange fluorescence; percent of sucrose octasulfate shift, DMSO zero; calls only at 9.99 µM; actives 1.5% (n = 340,000);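 active = melting point raised past a set limit in the mean and every replicate; inconclusive = no clear call; three in four hits are not shown here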
RanGTP-Impb inh – inhibitors of RanGTP-importin-beta interaction, primary screen, biochemical, FRET, CFP-Ran, YFP-importin-beta, homogeneous; actives 1.1% (n = 300,000); inhibition, % (test concentration not listed); cell-free CFP-Ran/YFP-importin-beta FRET ratio;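 active = most replicates above 15%; inconclusive = exactly half above 15%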;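 note: 0% = DMSO wells and 100% = Ran loaded with GDP instead of GTP; wells of about 40 µL received 100 nL stock; the first replicate is given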
The depositor's hits bear a star. An excerpt (hit frequency here may not be typical).

`O=C(COC(=O)c1ccccc1Oc1ccccc1)NC1CCS(=O)(=O)C1` (stereo unspecified) gave HNF4A DNA FP -0.9, Vif A3G 1%, Ecoli growth 0.65, UCH37 DUB inh -1.8 and RanGTP-Impb inh 2.9.
`Cc1cccc(NC(=O)Cc2noc3ccccc23)c1` gave HNF4A DNA FP -0.4, Vif A3G -5%, Ecoli growth 0.67, UCH37 DUB inh 3.2 and RanGTP-Impb inh -2.0.
Screening CC(=O)Nc1ccc(NC(=O)CSc2ncc(C(=O)Nc3ccc(Cl)cc3)c(=O)n2C)cc1 returned HNF4A DNA FP 0.4, Vif A3G 0%, Ecoli growth 0.67, UCH37 DUB inh -19 and RanGTP-Impb inh 7.7.
For CN(CC(=O)NCc1ccncc1)S(=O)(=O)c1ccc(Cl)cc1 the results were HNF4A DNA FP 0.3, Vif A3G -3%, MLL AF4-AF9 inh -1.4, Ecoli growth 0.64, UCH37 DUB inh -0.7, FGF22 binding inactive and RanGTP-Impb inh 0.4.
For O=C(CSc1nnc(-c2ccccn2)o1)Nc1ccc(F)cc1 the results were HNF4A DNA FP -2.5, Vif A3G 2%, MLL AF4-AF9 inh -5.4, Ecoli growth 0.7, UCH37 DUB inh 3.1, FGF22 binding inactive and RanGTP-Impb inh inconclusive.
For CC12COC3(C(=O)Nc4ccc(Cl)cc4)CC1CCC32C (stereo unspecified) the results were HNF4A DNA FP 1.4, Vif A3G -5%, Ecoli growth 0.71, UCH37 DUB inh 2.3 and RanGTP-Impb inh 1.0.
CCN1CCN(c2cc(C)c3cc(NC(=S)N4CCCC4)ccc3n2)CC1 was read as HNF4A DNA FP -6.1, Vif A3G -4%, MLL AF4-AF9 inh 1.5, Ecoli growth 0.69, UCH37 DUB inh -16, FGF22 binding inactive and RanGTP-Impb inh -32.
`COc1ccc(NC(=O)C2CCN(S(=O)(=O)c3c(C)noc3/C=C/N(C)C)CC2)cc1` gave HNF4A DNA FP 0.6, Vif A3G 3%, MLL AF4-AF9 inh 1.3, Ecoli growth 0.71, UCH37 DUB inh 9.3, FGF22 binding inactive and RanGTP-Impb inh inconclusive.
For Cc1cccc(C(=O)Nc2sc(C)c(-c3ccccc3)c2C#N)c1 the results were HNF4A DNA FP -4.9, Vif A3G 9%, Ecoli growth 0.77, UCH37 DUB inh -15 and RanGTP-Impb inh 39*.
O=C1CN(C(=O)CNCc2ccccc2)c2ccccc2N1 was read as HNF4A DNA FP 1.0, Vif A3G -2%, MLL AF4-AF9 inh -10, Ecoli growth 0.69, UCH37 DUB inh 1.1, FGF22 binding inactive and RanGTP-Impb inh -1.3.
`CN(C)C1=NC[C@H](Cc2ccccc2)N1CCCC1CCCC1` gave HNF4A DNA FP 1.7, MLL AF4-AF9 inh 0.8, UCH37 DUB inh -0.4 and FGF22 binding inactive.
COc1ccc(NC(=O)COC(=O)CCNC(=O)c2ccco2)cc1Cl was read as HNF4A DNA FP 4.6, MLL AF4-AF9 inh 0.3, Ecoli growth 0.68, UCH37 DUB inh 0.9 and FGF22 binding inactive.
`CCCCOc1ccc(NC(=O)C2CC=CCC2C(=O)O)cc1` (stereo unspecified) gave HNF4A DNA FP 2.4, MLL AF4-AF9 inh -41, Ecoli growth 0.7, UCH37 DUB inh 2.3, FGF22 binding inactive and RanGTP-Impb inh 7.3.
Screening Cc1ccc(Cn2c(C(C)Nc3nc(-c4ccc(F)cc4)cs3)nc3cc(C(=O)NCCCO)ccc32)cc1 (stereo unspecified) returned HNF4A DNA FP 1.7, MLL AF4-AF9 inh 7.0, UCH37 DUB inh 4.9, FGF22 binding inactive and RanGTP-Impb inh 7.8.
For COc1ccc(N(CC(=O)Nc2ccc3c(c2)OCO3)S(C)(=O)=O)c(OC)c1 the results were HNF4A DNA FP -0.8, Vif A3G 8%, Ecoli growth 0.7, UCH37 DUB inh 0.6 and RanGTP-Impb inh -1.3.
O=C(CCCn1c(SCc2cccc(F)c2)nc2ccccc2c1=O)NCC1CCCO1 (stereo unspecified) was read as HNF4A DNA FP 1.1, Vif A3G 5%, MLL AF4-AF9 inh 0.8, Ecoli growth 0.75, UCH37 DUB inh -1.5, FGF22 binding inactive and RanGTP-Impb inh -1.4.
`O=C(CCn1cnnn1)Nc1ccc(Cl)cc1Cl` gave HNF4A DNA FP 1.3, Vif A3G 1%, MLL AF4-AF9 inh -1.0, Ecoli growth 0.72, UCH37 DUB inh 1.4, FGF22 binding inactive and RanGTP-Impb inh -5.0.
Screening CC1CCN(CCOc2ccc(Cl)c(Cl)c2)CC1 returned HNF4A DNA FP -0.7, Vif A3G -4%, MLL AF4-AF9 inh 13, Ecoli growth 0.64, UCH37 DUB inh 4.7, FGF22 binding inactive and RanGTP-Impb inh -0.3.
Cc1sc(NC(=O)C2CCCCC2C(=O)O)c(C(N)=O)c1-c1ccc(C(C)C)cc1 (stereo unspecified) was read as HNF4A DNA FP -2.7, Vif A3G -5%, Ecoli growth 0.74, UCH37 DUB inh 0.2 and RanGTP-Impb inh -2.5.
`Cc1ccc(S(=O)(=O)NC(=O)N2CCCC2)cc1` gave HNF4A DNA FP -1.1, Vif A3G -6%, MLL AF4-AF9 inh -9.8 and FGF22 binding inactive.

Three compounds picked at random from those above:
COc1ccc(NC(=O)COC(=O)CCNC(=O)c2ccco2)cc1Cl was read as HNF4A DNA FP 4.6, MLL AF4-AF9 inh 0.3, Ecoli growth 0.68, UCH37 DUB inh 0.9 and FGF22 binding inactive.
`CN(C)C1=NC[C@H](Cc2ccccc2)N1CCCC1CCCC1` gave HNF4A DNA FP 1.7, MLL AF4-AF9 inh 0.8, UCH37 DUB inh -0.4 and FGF22 binding inactive.
`O=C(CCn1cnnn1)Nc1ccc(Cl)cc1Cl` gave HNF4A DNA FP 1.3, Vif A3G 1%, MLL AF4-AF9 inh -1.0, Ecoli growth 0.72, UCH37 DUB inh 1.4, FGF22 binding inactive and RanGTP-Impb inh -5.0.

(next part)
Screening COc1ccc(Cl)cc1-c1cc(C(=O)NCc2cccc(C(F)(F)F)c2)[nH]n1 returned HNF4A DNA FP -4.6, MLL AF4-AF9 inh -6.3 and FGF22 binding inactive.
CC(C(=O)NC1CCCCC1)N1C(=O)C2C3C=CC(C3)C2C1=O (stereo unspecified) was read as HNF4A DNA FP -1.4, Vif A3G 4%, MLL AF4-AF9 inh -0.3, Ecoli growth 0.68, UCH37 DUB inh 3.9, FGF22 binding inactive and RanGTP-Impb inh inconclusive.
O=C(CSc1nc(=O)n(CCCN2CCOCC2)c2c1CCCC2)Nc1cccc(Cl)c1 was read as HNF4A DNA FP -0.7, Vif A3G -1%, MLL AF4-AF9 inh 5.7, Ecoli growth 0.68, UCH37 DUB inh 1.5, FGF22 binding inactive and RanGTP-Impb inh -0.7.
Screening CCc1nc2ccc(C(=O)NCCc3ccccn3)cn2c1N(C)Cc1ccc(N(C)C)cc1 returned HNF4A DNA FP -1.6, MLL AF4-AF9 inh 13 and FGF22 binding inactive.
`CC(=O)N(C(C)=O)c1nc(-c2ccccc2)cn1/N=C/c1ccccc1` gave HNF4A DNA FP -0.5, Vif A3G 15%, MLL AF4-AF9 inh -9.1, FGF22 binding inactive and RanGTP-Impb inh -5.8.
O=C1N=c2ccccc2=C1c1sc(Nc2ccc(O)cc2)nc1O was read as HNF4A DNA FP -8.1, Vif A3G 13%, MLL AF4-AF9 inh 3.1, Ecoli growth 0.73, UCH37 DUB inh 11 and FGF22 binding inactive.
Cn1cccc1/C=N/N1CCN(Cc2cccc3ccccc23)CC1 was read as HNF4A DNA FP -5.6, Vif A3G 10%, MLL AF4-AF9 inh 11 and RanGTP-Impb inh 2.1.
For COc1ccc(OCC(=O)Nc2nccs2)cc1 the results were HNF4A DNA FP 5.0, Vif A3G -7%, MLL AF4-AF9 inh -0.2, Ecoli growth 0.69, UCH37 DUB inh 3.9, FGF22 binding inactive and RanGTP-Impb inh inconclusive.
COc1cccc(C(=O)N/N=C/c2ccc(Oc3ccc([N+](=O)[O-])cn3)c(OC)c2)c1 was read as HNF4A DNA FP -0.9, Vif A3G -1%, MLL AF4-AF9 inh 4.4, FGF22 binding inactive and RanGTP-Impb inh 1.9.
`CC(=O)N/C(=C/c1cccnc1)C(=O)Nc1ccc(Cl)cc1` gave HNF4A DNA FP -1.3, MLL AF4-AF9 inh -1.1, UCH37 DUB inh 2.8, FGF22 binding inactive and RanGTP-Impb inh -4.7.
Screening COC(=O)[C@H](C)NC(=O)Nc1ccc(C)c(C)c1 returned HNF4A DNA FP 0.0, Vif A3G 2%, Ecoli growth 0.76, UCH37 DUB inh -0.9 and RanGTP-Impb inh 6.1.
`CC(=O)c1cc2c(cc1NC(=O)c1ccco1)OCCO2` gave HNF4A DNA FP 2.0, MLL AF4-AF9 inh 0.3, Ecoli growth 0.73, UCH37 DUB inh -39, FGF22 binding inactive and RanGTP-Impb inh 0.2.
Screening COC(=O)N/N=C\c1ccc(OC(=O)c2ccco2)cc1 returned HNF4A DNA FP 0.8, Vif A3G -4%, MLL AF4-AF9 inh -1.2, FGF22 binding inactive and RanGTP-Impb inh 2.5.
O=C(CSc1nncn1-c1ccccc1)Nc1cc(Cl)cc(Cl)c1 was read as HNF4A DNA FP 4.9, Vif A3G -4%, MLL AF4-AF9 inh 1.3, Ecoli growth 0.75, UCH37 DUB inh 1.4, FGF22 binding inactive and RanGTP-Impb inh -0.5.
Screening CN(Cc1ccccc1)C(=O)COC(=O)c1ccc(Br)c(S(=O)(=O)N2CCOCC2)c1 returned HNF4A DNA FP 0.4, MLL AF4-AF9 inh -2.5, Ecoli growth 0.65, UCH37 DUB inh 1.0 and FGF22 binding inactive.
`OC[C@@H]1CN(Cc2ccco2)C[C@H](n2cnc3c(NC4CCC4)ncnc32)O1` gave HNF4A DNA FP -0.8, MLL AF4-AF9 inh -1.0 and FGF22 binding inactive.
For COc1ccc(CNS(=O)(=O)c2ccc3c(c2)CCN3C(=O)C2CCC2)cc1 the results were HNF4A DNA FP 2.2, MLL AF4-AF9 inh -3.3, Ecoli growth 0.73, UCH37 DUB inh 1.2, FGF22 binding inactive and RanGTP-Impb inh 0.3.
`CCC(C)(C)NC(=O)c1cc([N+](=O)[O-])ccc1N1CCOCC1` gave HNF4A DNA FP 2.9, Ecoli growth 0.69, UCH37 DUB inh 8.6 and RanGTP-Impb inh 1.1.
O=C(NC1=NC2CCCCC2N1)c1ccccc1 (stereo unspecified) was read as HNF4A DNA FP 1.5, Vif A3G 5%, Ecoli growth 0.78 and UCH37 DUB inh 4.8.
C=CCN1CC2CC3(COc4cc(C)cc(C)c4)C=CC2(O3)C1=O (stereo unspecified) was read as HNF4A DNA FP -2.9, Vif A3G 15%, Ecoli growth 0.71, UCH37 DUB inh -4.5 and RanGTP-Impb inh -1.0.
Screening COc1cc(F)ccc1-c1csc(C(O)c2ccc(F)c(F)c2)n1 (stereo unspecified) returned HNF4A DNA FP 3.4, MLL AF4-AF9 inh -3.6 and FGF22 binding inactive.
`Cc1cc(/C([O-])=C(/C(=S)Nc2ccccc2)[n+]2ccccc2)c(C)n1-c1ccccc1` gave HNF4A DNA FP 4.2, Vif A3G 16%, Ecoli growth 0.68, UCH37 DUB inh 8.6 and RanGTP-Impb inh 0.4.
`O=C(O)c1ccc(CSCc2ccccc2F)o1` gave HNF4A DNA FP -1.0, Vif A3G 1%, Ecoli growth 0.75, UCH37 DUB inh 0.9 and RanGTP-Impb inh -0.7.
For O=C(COC(=O)c1ccccc1Br)NC1CCCCCCC1 the results were HNF4A DNA FP -7.1, Vif A3G -1%, MLL AF4-AF9 inh 2.3 and FGF22 binding inactive.
Screening COc1ccc(-c2nnc(SCc3ncc(-c4ccccc4)o3)o2)cc1 returned HNF4A DNA FP -1.3, Vif A3G -5%, Ecoli growth 0.68, UCH37 DUB inh 4.0 and RanGTP-Impb inh -3.7.

Screening results deposited in PubChem BioAssay by several laboratories.
